VACV Venus inh – qHTS for Stage-Specific Inhibitors of Vaccinia Orthopoxvirus: Venus Reporter Primary qHTS; Vaccinia virus Venus reporter expression, fluorescence; Potency, µM (doses to about 36.5 µM), for the others: at the top dose activity change, negative = inhibition, most hits filed as inhibitors; 330,000 compounds, 0.46% hits; active means well fitted inhibition curve with a large enough effect; inconclusive means small, poorly fitted or top-dose-only effect; inactive means no such curve, though single readings can be large or run the other way; tested in A549 cells; note: nearly all actives have a fitted effect of over 30% in size; inactives centre near -10
VACV mCherry inh – qHTS for Stage-Specific Inhibitors of Vaccinia Orthopoxvirus: mCherry Reporter Primary qHTS; Vaccinia virus mCherry reporter infection, fluorescence; about a quarter of the inactives have no number; Potency, µM (series often up to 36.5 µM), for inactives: at the highest dose activity change, negative = inhibition, hits mostly inhibitors; 310,000 compounds, 0.63% hits; AID 720579, 2013; active = well fitted inhibition curve with a large enough effect; inconclusive = small, poorly fitted or top-dose-only effect; inactive = no such curve, though single readings can be large or run the other way; tested in A549 cells; note: nearly all actives have a fitted effect of over 35% in size; inactives centre near -10
Starred values were filed as active, the others as inactive; i = inactive; ? = inconclusive; nt = not tested or not shown; & = joins results of further samples; [ ] = dose if it differs, or a comment. % is set by controls: 0 for no effect and ±100 for the full control effect; potency is the fitted concentration of half-maximal effect.

canonical_smiles | VACV Venus inh | VACV mCherry inh
COc1ccc(NC(=O)CC2C(=O)N(c3ccc(F)cc3)C(=O)N2Cc2cccnc2)cc1 (stereo not given) | -1% | -7%
Nc1cc(Cl)ccc1C(=O)OCC(=O)NC1CCS(=O)(=O)C1 (stereo not given) | -11% | -11%
CC12CCCCC1C(C(N)=O)C(=O)O2 (stereo not given) | -7% | -12%
CN(C)c1ccnc(Oc2ccc(C(C)(C)C)cc2)c1C#N | -20% | -11%
Cc1ccc(SCc2c(C(=O)N/N=C/c3cccnc3)nnn2-c2nonc2N)cc1 | -7%[7.34 µM] | -11%[7.34 µM]
CC(C)NC(=O)C1CCN(C2CCN(C(=O)Cc3ccc4c(c3)OCO4)CC2)CC1 | -10% | -2%
CN(C(=O)COC(=O)c1ccc(Cl)cc1N)C1CCCCC1 | 1% | 4%
O=C(Cc1cccc(NC(=O)C2CCN(C(=O)C3CCCC3)CC2)c1)Nc1cccc(C(=O)N2CCCCC2)c1 | -12% | -20%
CN(CC(=O)Nc1ccccc1Br)C(=O)c1cc([N+](=O)[O-])ccc1N1CCOCC1 | -17% | -1%
O=C(O)CCCCn1c(SCc2cc(=O)n3cc(Cl)ccc3n2)nc2ccsc2c1=O | -11% | -13%
CCCC(=O)c1ccc(OCc2cn(CC(=O)c3ccc(O)cc3)nn2)cc1 | -24% | -14%
O=C(CN(C1CCCCC1)S(=O)(=O)c1ccc(Br)cc1)NCc1cccnc1 | 0% | -16%
CC(C)CC1NC(=O)N(Cc2cc(=O)n3ccsc3n2)C1=O (stereo not given) | -5% | -2%
CCCCN(CCCNC(=O)c1cc(Nc2ccccc2OC)nc2ccccc12)c1ccccc1 | -8% | -9%
O=C(c1cc(Br)ccc1Cl)N1CCN(c2ccc(N3CCOCC3)nn2)CC1 | -16% | -3%
COc1ccc(Nc2nc3ccccc3c3nnc(C)n23)cc1Cl | -6% | -14%
CC12CCC(C(=O)N3CCOCC3)([C@H](Br)C1=O)C2(C)C (stereo not given in full) | -7% | i
Nc1nc2ccc(O)cc2s1 | -18% | -16%
CCCCNC(=O)C1c2ccccc2OCC(=O)N1CCc1ccc(OC)c(OC)c1 (stereo not given) | 9% | 14%
COc1cc(OC)cc(-c2c(C#Cc3ccsc3)c3cc(Br)ccc3n2C)c1 | -21% | -10%
Cc1cccc(N2CCN(S(=O)(=O)c3ccc4c(c3)CC(=O)N4C)CC2)c1C | -21% | -1%
CC(C)CN(C(=O)COC(=O)/C=C/c1cccs1)c1c(N)n(Cc2ccccc2)c(=O)[nH]c1=O | -17% | -11%
Fc1ccc(CNc2ncccn2)cc1 | 10% | i
CCCCCCNC(=O)O[C@H]1C[C@@H]2C(=O)N(c3ccccc3)C(=O)[C@@H]2[C@@H]2CN(S(=O)(=O)c3ccc(C)cc3)C[C@]12O | -12% | i
c1ccc(CNc2ncnc3c2cnn3Cc2ccccc2)cc1 | -25% | ?
COC(=O)c1ccc(-c2ccc(/C=N/NC(=O)Cc3nnc(N)s3)o2)cc1 | 1% | -1%
Cc1ccc(NC(=S)NNC(=O)c2ccc(N3CCOCC3)c([N+](=O)[O-])c2)cc1C | -18% | ?
O=C(NCCc1ccc(F)cc1)c1ccc(NS(=O)(=O)c2ccc3[nH]c(=O)[nH]c3c2)cc1 | -1% | i
COC(=O)c1ccccc1NC(=O)c1nc(S(=O)(=O)Cc2ccccc2F)ncc1Cl | -9% | -6%
N#C/C(=C\c1cccnc1)c1ccc([N+](=O)[O-])cc1 | -12% | -18%
CN(C)c1ccc(/C=C/c2ccnc3ccc(F)cc23)cc1 | -42% | -39%
COc1cccc(CNC(=O)CCC2CCCN(C(=O)c3cccc4c(C)c(C)[nH]c34)C2)c1 (stereo not given) | -21% | -15%
O=C(CSc1cccc[n+]1[O-])Nc1ccc(C(F)(F)F)cc1[N+](=O)[O-] | -11% | -8%
O=C(NCC(c1cccnc1)N1CCOCC1)C(=O)Nc1cccc(Cl)c1 (stereo not given) | -10% | -11%
CCCCCCCNC(=O)C1(CC2CC(c3cccc(Br)c3)=NO2)CCN(C(=O)C2CCCC2)CC1 (stereo not given) | -20% | -10%
Oc1ccc(/C=N/N2CCN(C3c4ccccc4-c4ccccc43)CC2)c(O)c1 | -3% | ?
CN1CCSc2ccc(C(=O)Nc3cc(F)ccc3F)cc21 | -8%[7.34 µM] | i[7.34 µM]
COc1cccc2cc(C(=O)N3CCCCCCC3)c(=O)oc12 | 0% | -8%
COc1ccc(F)cc1S(=O)(=O)Nc1ccc2c(c1)CCCN2C(=O)c1cccs1 | -13% | -10%
CCSc1nc2c(c(=O)[nH]1)C(c1ccc(C)cc1)C1=C(CCCC1=O)N2 (stereo not given) | 2% | 0%

Whole records as entered above.
Shown for CN1CCSc2ccc(C(=O)Nc3cc(F)ccc3F)cc21 → VACV Venus inh: -8%[7.34 µM]; VACV mCherry inh: i[7.34 µM]
Shown for O=C(NCC(c1cccnc1)N1CCOCC1)C(=O)Nc1cccc(Cl)c1 (stereo not given) → VACV Venus inh: -10%; VACV mCherry inh: -11%

Carrying on.
canonical_smiles | VACV Venus inh | VACV mCherry inh
O=C(O)C1C2C=CC(C2)C1C(=O)Nc1cccc(C(=O)N2CCCCC2)c1 (stereo not given) | -11% | i
CCCCS(=O)(=O)Nc1ccc2cn[nH]c2c1 | -7% | -12%
O=CN1CCN(C(=O)c2ccc([N+](=O)[O-])cc2)CC1 | -8% | -9%
Cc1ccc(C)c2nc3sc(C(=O)O)cc3cc12 | 1% | i
COc1ccccc1CNCc1ccc(OC)c(OC)c1OC | -20% | 0%
CC(=O)c1sc2nsc(SCCN3CCCCC3)c2c1N | -27% | -22%
CC(=O)N1c2ccc(S(=O)(=O)NCCC(=O)Nc3ccc(OC(F)(F)F)cc3)cc2CC1C (stereo not given) | 3%[7.34 µM] | -13%[7.34 µM]
COC(=O)c1ccccc1NC(=O)CCNC(=O)Cn1cnc2ccccc2c1=O | -11% | -13%
COc1cc(/C=C(\C#N)c2nc3ccccc3[nH]2)cc(OC)c1O | nt | ?
CN(C)/C=N/c1nc2c(ncn2C2CC(O)C(CO)O2)c(=O)[nH]1 (stereo not given) | 24% | -13%
O=C(C[C@H]1C/C=C\CC[C@@H](Cc2ccc(F)cc2)C(=O)O[C@@H](c2ccccc2)CNC1=O)N[C@@H](CO)Cc1ccccc1 | -9% | i
CCc1nc2ccc(C(=O)NCc3cccs3)cn2c1N(CC)CCN(C)C | 13% | 2%
Clc1ccccc1N1CCN(c2ncnc3c2c(-c2ccccc2)cn3-c2ccccc2)CC1 | -1% | -12%
CN(Cc1ccccc1)S(=O)(=O)c1ccc(-c2cnc(C3CC3)o2)cc1 | -4% | -17%
CN(c1ccc(OCCOc2ccccc2Cl)cc1)S(=O)(=O)c1ccccc1 | -23% | -28%
CCOc1cc(S(=O)(=O)Nc2cc(C)cc(C)c2)ccc1Cl | -18% | -11%
CCOC(=O)COc1ccc2nsnc2c1Cl | -18% | nt
CCc1ccc(CN/C=C/C(=O)c2ccc(Br)cc2)cc1 | -2% | i
COC(=O)c1cc2c(C)nn(-c3ccccc3)c2s1 | -29% | nt
COc1ccc(S(=O)(=O)Nc2ccc(O)c(Sc3ncn[nH]3)c2)cc1 | -11% | -6%
C/C(=N/OC(=O)C1CC12CCC2)c1ccc(Br)cc1 (stereo not given) | -3% | i
Cc1nc(-n2nc(C)c(CCC(C)C)c2C)sc1C(=O)Nc1ccc(Br)cc1 | -4% | 12%
COc1ccc2cc(C#N)c(Cl)nc2c1 | -4% | -3%
O=C(O)c1cccc(Cn2cccn2)c1 | -10% | i
Cc1ccc(CSCCNC(=O)c2ccc(N(C)S(=O)(=O)c3ccccc3)cc2)cc1 | ? | nt
Cc1ccc2nc(SCC(=O)Nc3ccc(F)c([N+](=O)[O-])c3)[nH]c2c1 | -9% | i
NNC(=O)c1ccc(COc2cccc3cccnc23)cc1 | -24% | ?
COc1cc(CCC(=O)OCC(=O)Nc2cc(S(=O)(=O)N3CCOCC3)ccc2Cl)cc(OC)c1OC | -30% | -20%
CSCc1ccc(C(=O)OCC(=O)NC2CCCC2)o1 | -14% | i
O=C(NCC1CCCO1)c1cccc(S(=O)(=O)N2CCCCC2)c1 (stereo not given) | -10% | -15%

(list continues)
SMILES	VACV Venus inh	VACV mCherry inh
CCC(C)(C)c1ccc(Oc2cccc(C(=O)O)c2)cc1	4%	-5%
Cc1cc(C)nc(-n2nc(C)c(Oc3ccccc3O)c2C)n1	-15%	nt
COc1ccc(NC(=O)Cn2c(=O)n(-c3ccc(C)cc3)c(=O)c3c2cnn3C)cc1	-9%	-7%
O=C(CCCSc1nc(-c2ccco2)cc(C(F)(F)F)n1)NCC1CCCO1 (stereo not given)	?	nt
CCOC(=O)c1ccc(-n2c(C)ccc2C)cc1	-10%	i
CC1CN(C(=O)c2cc(S(=O)(=O)N(C)c3ccc(F)cc3)ccc2Cl)CC(C)O1 (stereo not given)	-9%	?
COc1ccc(S(N)(=O)=O)cc1C(=O)N(C)CC(=O)Nc1ccc(N2CCOCC2)cc1	-8%	i
CC(C)=CCN1CCN(Cc2nc(C(C)C)cs2)CC1CCO (stereo not given)	-14%	-19%
O=C(Cc1ccc(Br)cc1)NNC(=O)c1cccs1	-1%	i
CCN1C(=O)/C(=C2\C=Cc3ccccc3N2CC)OC1=S	-14%	-28%
CCOc1cc(/C=C2\N=C(C)OC2=O)cc(Br)c1OCC(=O)OC	-9%	-14%
Cc1ccc(S(=O)(=O)NCCC(=O)N2CCCCCCC2)cc1C	-9%	i
COc1ccc(-c2c(-c3cc(OC)c(OC)c(OC)c3)noc2C)cn1	-22%&-30%	?
Cc1cccc(NC(=O)c2cc([N+](=O)[O-])ccc2N2CCOCC2)c1C	-2%	-12%
CCOC(=O)[C@]12CCC=C1N(Cc1ccc3c(c1)OCO3)C(=O)[C@H](CC(=O)NCCCN1CCCC1=O)C2	-5%	i
CCOc1ccc(OCC(=O)OCC(=O)NNC(=O)c2ccc([N+](=O)[O-])cc2)cc1	-2%	-16%
O=C(CSc1nc2ccccc2c(=O)n1-c1ccc(F)cc1F)NC1CC1	-14%	i
CCOc1ccc(C(NC(C)=O)c2cc(Cl)c3cccnc3c2O)cc1 (stereo not given)	?	5µM*
COc1ccc(-n2nccc2-c2nn(-c3cccc(OC)c3)c(=O)n(C)c2=O)cc1	-9%	-22%
O=[N+]([O-])c1cccc(P(=O)(O)c2cccc([N+](=O)[O-])c2)c1	15%	9%
CCN(CCCNC(=O)c1nn(C)c2c1CS(=O)(=O)c1ccccc1-2)Cc1ccccc1	-5%[7.34 µM]	-6%[7.34 µM]
Cc1ccc(S(=O)(=O)N(C)C)cc1NC(=S)NC(C)CCC(C)C (stereo not given)	-29%	-25%
CC(=O)Nc1cc(C(=O)Nc2ccc3c(c2)N(C)C(=O)c2ccccc2S3)ccc1C	-12%	-9%
CCN1C(=O)/C(=C2\Sc3ccccc3N2CC)OC1=S	-24%	i
COc1ccc(N2CCN(C(=O)COC(=O)CC(NC(N)=O)c3ccc(Cl)cc3)CC2)cc1 (stereo not given)	-18%	-14%
Cc1cc(N(C)C)cc(C)c1N=Nc1cc[n+]([O-])cc1	-7%	-10%
NC(=O)[C@@H]1CC2(CC(c3cccc(NC(=O)[C@H]4CCC(=O)N4)c3)=NO2)CN1C(=O)COc1ccc(Cl)cc1 (stereo not given in full)	-5%	-1%
c1ccc(-c2nnc(CN3CCCCC3)o2)cc1	-12%	i
CCN(CC)CCNC(=O)c1ccc(N2CCCCC2)c(NS(=O)(=O)c2ccc(C)cc2)c1	?	?
CC1CCCCN1C(=O)Cn1cnc2cc([N+](=O)[O-])ccc2c1=O (stereo not given)	-11%	-13%
CC1Cc2ccccc2N1C(=O)CO/N=C/c1ccc(OC(F)F)cc1 (stereo not given)	-7%	-1%
COc1ccccc1-c1noc(-c2ccc(N(C)Cc3ccccc3)c([N+](=O)[O-])c2)n1	-4%	-5%
Cc1oc2ccc(O)cc2c1C(=O)c1ccc(Cl)cc1	?	?
COC(=O)c1ccc(OCC2c3cc(OC)c(OC)cc3CCN2C(=O)c2ccccc2F)cc1 (stereo not given)	-12%	-13%
Cc1ccc(C(=O)C(C)OC(=O)CCN=C2NS(=O)(=O)c3ccccc32)cc1 (stereo not given)	-7%	-17%
CCC(C)C1Nc2ccc(C(=O)NCc3ccc4c(c3)OCO4)cc2NC1=O (stereo not given)	-7%	?
COc1cccc(-n2cc(C(=O)Oc3cccc(C(F)(F)F)c3)c3ccccc3c2=O)c1	-15%	-13%

As entered above.
`CC1Cc2ccccc2N1C(=O)CO/N=C/c1ccc(OC(F)F)cc1` (stereo not given) in VACV mCherry inh: -1%
`CCC(C)C1Nc2ccc(C(=O)NCc3ccc4c(c3)OCO4)cc2NC1=O` (stereo not given) in VACV Venus inh: -7%
`Cc1cc(N(C)C)cc(C)c1N=Nc1cc[n+]([O-])cc1` in VACV Venus inh: -7%
`CC1CCCCN1C(=O)Cn1cnc2cc([N+](=O)[O-])ccc2c1=O` (stereo not given) in VACV Venus inh: -11%
`Cc1ccc(C(=O)C(C)OC(=O)CCN=C2NS(=O)(=O)c3ccccc32)cc1` (stereo not given) in VACV mCherry inh: -17%

Screens from PubChem BioAssay.
